# Screening data from PubChem.
# CSC inhib: blocks cancer stem cells | inhibition, % at 7.5 µM | actives 1.1% (n = 300,000) | cancer stem cell-like cells viability, luminescence;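 active means mean at 75% or more and at least half the replicates too; tested in HMLE shEcad cells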;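 further: 0% = median of negative and 100% = median of positive control wells; the first replicate is given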
# MT1-MMP act inh: inhibitors of human MT1-MMP activation. GFP/RFP ratio change, % at 20 µM. actives 0.061% (n = 360,000). P50281. HT1080 RFP-PRO-GFP cells, GFP/RFP ratio fluorescence, overnight; percent of plate control window, DMSO zero;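 active means GFP/RFP ratio change of at least 30% with cell ATP level not reduced by more than half and red fluorescence within 50% of control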; further: strong numbers were not always called active
#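 Test system: HT1080 RFP-PRO-GFP cells; Benchmarks: DMSO and RFP-L50D-GFP cell wells; Timing: cells overnight before dosing, compound overnight, 37 °C, 5% CO2; Compound: one 20 µM compound dose with 1% DMSO; Read-out: GFP/RFP fluorescence ratio.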
# Rce1 inh: yeast Ras-converting enzyme inhibition; Q03530; actives 0.27% (n = 290,000); calls only; yeast membranes, quenched prenylated peptide cleavage fluorescence;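 active means fall in fluorescence gain of 50% or more versus controls, with final raw signal at or below 3038400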;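 further: plate controls were neutral control wells for no effect and wells lacking membranes for full effect; tested at 10 µM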
# UUG fidelity: alters start codon recognition fidelity in yeast. actives 0.13% (n = 350,000). S. cerevisiae UUG-firefly luciferase reporter, luminescence/redox ratio. activity score, % at 18.7 µM;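 active means replicate mean at a twofold rise or more, about +100% in these data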;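 further: firefly luciferase made from a UUG start codon reports start codon fidelity; reporter light over untreated wells divided by growth signal over untreated wells; some hits fall short of that in this replicate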
# Env fusion inh: inhibitors of HIV Env-mediated cell fusion; HeLa-JRFL Env/CEM21 cell fusion, luciferase; inhibition, % at 12.3 µM; actives 1.1% (n = 360,000);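 active means mean replicate inhibition score of at least 50 and every replicate individually at or above 50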;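 further: 0% = plate neutral controls and 100% = maraviroc near 300 nM; one replicate is shown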
# PABP polyA inh: PABP-poly(A) binding inhibition; P11940; actives 1% (n = 290,000); PABP-poly(A) RNA binding, fluorescence polarization; inhibition, % at 35 µM;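 active means 50% or more with normal probe brightness, or confirmed in later tests; about a fifth of its hits are not listed in these tables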;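 further: calls also rest on retests at 20 µM and on dose response follow-up; controls were probe without protein and protein plus probe with vehicle; some compounds called inactive have numbers as strong as hits; many hits fall short of the cut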
# Target sequence (P11940 whole entry, looked up): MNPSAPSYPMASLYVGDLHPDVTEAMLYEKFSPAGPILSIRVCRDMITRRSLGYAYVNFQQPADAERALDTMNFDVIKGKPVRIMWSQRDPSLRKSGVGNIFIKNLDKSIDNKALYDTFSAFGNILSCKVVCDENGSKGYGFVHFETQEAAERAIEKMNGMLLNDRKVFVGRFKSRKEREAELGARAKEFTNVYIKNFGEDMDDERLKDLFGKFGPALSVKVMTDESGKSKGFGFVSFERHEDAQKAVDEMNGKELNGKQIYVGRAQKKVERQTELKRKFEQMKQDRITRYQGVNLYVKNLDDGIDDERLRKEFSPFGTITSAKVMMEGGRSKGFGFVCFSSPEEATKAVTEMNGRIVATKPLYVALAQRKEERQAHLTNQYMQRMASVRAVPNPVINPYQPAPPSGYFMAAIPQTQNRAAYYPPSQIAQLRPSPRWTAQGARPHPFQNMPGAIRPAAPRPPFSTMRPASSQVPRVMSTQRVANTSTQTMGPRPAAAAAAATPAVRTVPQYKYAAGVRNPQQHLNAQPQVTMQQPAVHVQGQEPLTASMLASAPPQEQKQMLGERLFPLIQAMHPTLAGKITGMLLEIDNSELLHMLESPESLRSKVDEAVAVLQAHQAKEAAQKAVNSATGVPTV
# eIF4H inh: inhibitors of RNA binding by human eIF4H; Q15056; eIF4H fluorescence polarization binding assay; inhibition, % at 35 µM; actives 0.94% (n = 290,000); AID 2012;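 active means 50% or more with normal probe brightness, or confirmed in later tests; about a fifth of its hits are not listed in these tables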;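 further: calls also rest on retests at 20 µM and on dose response follow-up; 0% = protein and probe with vehicle and 100% = probe without protein; strong numbers were not always called active; many hits fall short of the cut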
# MT1-MMP act inh RFP: recorded beside MT1-MMP act inh, whose call it bears; RFP signal change, %; measured here: RFP expression control read;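 0 = vehicle wells; hits needed this value within 50% of zero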
# Numbers without * were called inactive; i = inactive; x = not tested or not shown.
SMILES,CSC inhib,MT1-MMP act inh,MT1-MMP act inh RFP,Rce1 inh,UUG fidelity,Env fusion inh,PABP polyA inh,eIF4H inh
COc1ccccc1OCC(=O)Nc1ccc(S(=O)(=O)Nc2cc(C)nc(C)n2)cc1,-16,1,2,i,-18,x,3,6
O=C(NCCCO)C(=O)NCC(c1ccc2c(c1)OCO2)N1CCN(c2ccc(F)cc2)CC1 (stereo unspecified),3,-3,1,i,1,-7,6,-7
CCOc1ccc(CN2C(=O)c3ccccc3C2C(=O)NCC2CCCO2)cc1 (stereo unspecified),-12,2,4,i,-21,-4,-35,-1
COc1ccc(/C=N/NC(=O)c2[nH]c(C)c(C(=O)N/N=C/c3ccc(OC)cc3)c2C)cc1,12,2,-8,i,-14,13,-12,-14
CS(=O)(=O)N1CCc2cc(C(=O)Nc3ccccc3Br)ccc21,-4,4,-2,i,-12,-31,7,-1
CC(C)CCNC(=O)CN(C(=O)CCC(=O)Nc1ccccn1)c1ccc(F)c(Cl)c1,-8,-1,2,i,x,17,0,1
CC12CCC(C(=O)NC3CCCCC3)([C@H](Br)C1=O)C2(C)C (stereo partly specified),-14,-1,1,i,x,-1,2,9
COc1cc(OC)nc(Oc2cccc(Cl)c2C)n1,-2,1,4,i,-1,4,x,x
Cn1c(SCC(=O)c2c(N)n(C)c(=O)n(C)c2=O)nnc1-c1ccccc1F,-4,4,-1,i,x,-11,-3,5
CC1(C)NC(=O)N(CC(O)Cn2c3ccccc3c3ccccc32)C1=O (stereo unspecified),-10,-4,1,i,-20,8,-3,3
Cc1ccc(-c2nnc3ccc(SCC(=O)Nc4cc(C)on4)nn23)cc1,x,-1,-6,i,-7,-42,2,-6
CCc1nn(CC(=O)NCc2cccnc2)c(=O)c2cc3occc3n12,-2,-3,4,i,-11,1,12,-4
C=CCOc1ccc(CNn2c(C)n[nH]c2=S)cc1OC,-10,1,2,i,-15,x,1,-7
O=C(NCC(=O)N1CCCCCCC1)c1ccccc1Br,-4,2,-8,i,-3,-8,x,x
CCOC(=O)[C@@H]1[C@H]2COc3ccc(Br)cc3[C@@H]2N2C(=O)N(c3cccc(F)c3)C(=O)[C@]12C,5,-1,-4,i,0,-11,x,x
Cc1cccc(C)c1NC(=O)C1CCCN1C(=O)Nc1cccc(F)c1 (stereo unspecified),7,-2,1,i,-30,-2,-3,-1
COC(=O)c1cc(OC)c(OC)cc1NC(=S)N1CCN(c2ccccn2)CC1,1,1,-4,i,-15,19,-13,-4
CCOC(=O)CCN1C(=O)c2ccccc2Sc2ncccc21,-4,-3,-2,i,-9,0,3,2
CCOc1ccc(-c2cn(S(=O)(=O)c3cccc4nsnc34)nc2N)cc1,2,0,-7,i,-9,x,-6,0
O=c1[nH]ncc2c3ccccc3n(Cc3ccc(F)cc3)c12,-19,-1,-7,i,x,x,2,2
CC(C)Oc1ccccc1C1(c2ccccc2)NC(=O)NC1=O (stereo unspecified),-9,1,1,i,-3,-8,-10,5
CN(CC(=O)Nc1ccc(Cl)cc1)C1CCCCC1,10,-1,3,i,-2,-7,3,7
Cc1cc(C(=O)COc2cc(F)ccc2[N+](=O)[O-])c(C)n1CC1CCCO1 (stereo unspecified),-19,-5,2,x,-9,2,x,x
CCSc1ccccc1C(=O)NCc1ccc(OC)cc1,-6,-2,3,i,9,-13,11,8
O=C(Nc1cccc(Cl)c1)c1ccc2c(c1)OCCO2,10,1,-2,i,-28,-169,8,1
CCN(CC)C(CNC(=O)CSc1nnnn1-c1cccc(F)c1)c1ccco1 (stereo unspecified),-18,-4,0,x,-29,x,x,x
O=C(N/N=C/c1cccnc1)C(=O)N1CCCCCC1,-6,2,5,i,-11,3,2,-8
C/C(N)=C(/C#N)C(=O)CSc1nc2cc(Cl)ccc2c(=O)n1-c1ccc(C)cc1,x,-4,-14,i,x,-19,-16,-7
CCCS(=O)(=O)c1c(S(=O)(=O)CCC)c2cc(-c3ccncc3)ccn2c1C(=O)OC,-11,3,-3,i,6,39,3,-6
CC(=O)N(C)c1ccc(C(O)(C(F)(F)F)C(F)(F)F)cc1,-2,1,2,i,x,-19,-3,4
COc1ccc(C(CNC(=O)c2cccc(S(=O)(=O)N(C)c3ccccc3)c2)N2CCCC2)cc1 (stereo unspecified),0,-3,-1,x,-4,5,x,x
Cc1nc2ccc(NC(=O)c3cc(S(=O)(=O)N(C)c4ccccc4)ccc3Cl)cc2s1,5,-2,-26,i,x,87*,0,-15
COc1ccccc1N1N=C(c2cccs2)CC1c1ccccc1 (stereo unspecified),1,-8,-8,i,1,x,-4,2
O=C(C1CCCO1)N1CCN(C(=S)Nc2ccccc2)CC1 (stereo unspecified),-6,2,3,i,x,15,6,-2
CCOc1ccc(NC(=O)CN(C)C(=O)c2ccc(N3CCCCCC3)c([N+](=O)[O-])c2)cc1OCC,x,9,-1,i,x,6,x,x
O=C(O)C1(c2ccccc2)CCN(S(=O)(=O)c2ccccc2)CC1,2,-1,3,i,-5,10,-1,0
c1ccc(-n2ncc3c(N4CCN(c5ccccn5)CC4)nc(N4CCCCCC4)nc32)cc1,1,-3,-3,i,-15,-1,-7,1
CC(C)=CCN1CCN(Cc2ccc3nsnc3c2)CC1CCO (stereo unspecified),-3,3,5,i,x,0,-2,-4
OCCNc1nc(N2CCCC2)nc(N2CCCC2)n1,5,2,-2,i,-35,x,-1,1
CN(C(=O)COc1ccc(Cl)cc1Br)C1CCCCC1,7,2,-1,i,-11,-4,2,-2
CC(C)(C)NC(=O)COC(=O)c1ccc2c(c1)C(=O)N(Cc1ccco1)C2=O,-3,1,2,i,-9,-5,4,14
CC(C)c1ccc(NC(=S)NNc2ccc(Cl)c(C(=O)O)c2)cc1,-18,5,5,i,-7,-12,18,-2
CSC(=NC#N)N1CCN(c2ccc(Cl)cc2)CC1,8,12,-3,i,-25,-131,4,-4
Cc1noc(C)c1C(=O)Nc1ccc(S(=O)(=O)N2CCCCC2)cc1,-3,3,-6,i,-9,-4,0,0
Cc1occc1-c1nnc(SCC(=O)NCc2cccs2)n1-c1ccc(F)cc1,19,-1,3,i,-8,x,-4,1
COc1ccc([C@H]2CC(=O)C=C(c3cc(OC)ccc3OC)C2)cc1,53,-1,-7,x,-26,27,x,x
Cc1ccc2nc(C3CCCN(C(=S)Nc4ccccc4C)C3)[nH]c2c1 (stereo unspecified),7,0,-3,i,-19,x,-19,-4
Cc1ccc(CNC(=O)c2cncc(Br)c2)cc1,4,-4,-4,i,x,27,1,1
COC(=O)c1c(N2C(=O)[C@H]3[C@@H](C2=O)[C@]2(C(=O)Nc4c2ccc(C)c4C)N2CCC[C@@H]32)sc(C)c1C,-5,-10,4,i,x,-13,-9,-5
O=c1c(NCCc2ccccc2)c(-c2ccccc2)c1=O,-4,4,-9,i,-5,11,7,-6
O=C(Nc1cccnc1Cl)c1cc(-c2ccc(F)cc2)on1,-8,1,3,i,-30,-5,1,-11
CS(=O)(=O)N(CC(=O)N1CCc2ccccc2C1)c1ccc(Br)cc1,-9,0,-9,i,6,20,x,x
CCCNS(=O)(=O)c1ccc(OCC(=O)N2CCCC2)cc1,-7,-3,-2,i,x,-9,-6,3
CC(C)C(=O)Nc1nnc(-c2ccccc2)o1,-3,3,5,i,-18,-1,-4,-10
COC(=O)NCCc1cc(OC)c(OC)cc1S(=O)(=O)N1CC(=O)Nc2ccccc21,-3,-5,-2,i,3,1,8,3
COc1ccc(OC)c(-c2csc(NC(=O)COC(=O)C3(C)CC3(Cl)Cl)n2)c1 (stereo unspecified),7,-4,-4,x,-11,-11,x,x
COc1cc(C(=O)NC(C)CCn2cccn2)ccc1OC1CCN(C(C)=O)CC1 (stereo unspecified),-11,-3,3,i,-12,-11,-2,1
NC(=O)c1ccccc1NC(=O)c1ccc2ccccc2c1,8,9,1,i,-14,-248,-15,-13
COc1ccc(-c2cc(C)nc3c(-c4ccccc4)cnn23)cc1,x,-15,2,i,x,-216,-3,19
COc1ccccc1NC(=O)c1ccc(COc2ccccc2Br)o1,25,-2,-2,i,-20,-22,3,4

# 7 compounds from above, limited to MT1-MMP act inh:
molecule | MT1-MMP act inh
Cc1ccc(CNC(=O)c2cncc(Br)c2)cc1 | -4
COC(=O)c1c(N2C(=O)[C@H]3[C@@H](C2=O)[C@]2(C(=O)Nc4c2ccc(C)c4C)N2CCC[C@@H]32)sc(C)c1C | -10
O=c1c(NCCc2ccccc2)c(-c2ccccc2)c1=O | 4
O=C(Nc1cccnc1Cl)c1cc(-c2ccc(F)cc2)on1 | 1
CS(=O)(=O)N(CC(=O)N1CCc2ccccc2C1)c1ccc(Br)cc1 | 0
CCCNS(=O)(=O)c1ccc(OCC(=O)N2CCCC2)cc1 | -3
CC(C)C(=O)Nc1nnc(-c2ccccc2)o1 | 3

# Remaining list, next part.
SMILES,CSC inhib,MT1-MMP act inh,MT1-MMP act inh RFP,Rce1 inh,UUG fidelity,Env fusion inh,PABP polyA inh,eIF4H inh
O=c1c2sc(-c3ccccc3)cc2nc2n1CCCCC2,56,1,0,i,-2,-46,-6,0
CC(C)Oc1ccccc1-c1nc(SCC(=O)O)n[nH]1,x,6,13,i,-14,6,6,-2
COc1cc(C(=O)Nc2ccc(Cl)c(C(F)(F)F)c2)cc(OC)c1OC,58,-4,-6,i,7,x,-4,-11
CCOc1ccc(-n2c(=O)c3sccc3n(Cc3ccc(C)cc3)c2=O)cc1,-5,-2,-2,i,x,17,-1,-4
CC(C)C[C@@H](CN1CCCC1CN1C(=S)NC[C@@H]1Cc1ccc(O)cc1)N1C[C@H](Cc2ccccc2)N(CC2CCCCC2)C1=S (stereo partly specified),x,-7,-16,x,-4,41,x,x
C=C(C)CN(CC)c1nc(N)c2c(N)nc3c(c2c1C#N)CC(=O)N3C12CC3CC(CC(C3)C1)C2,19,-24,-10,x,-16,80*,62*,76*
Cc1nn(C)cc1C(C(=O)NC1CCCCC1)N(C(=O)Cn1nnc2ccccc21)c1ccc(F)cc1 (stereo unspecified),-17,1,2,i,-17,x,4,-3
Fc1ccc(NC(=S)NCCc2ccc(Cl)cc2)cc1,20,7,0,i,-27,-9,6,2
O=C(NCc1ccco1)C1CN(S(=O)(=O)c2ccccc2)CCN1S(=O)(=O)c1ccccc1 (stereo unspecified),-9,3,-3,i,-4,-160,9,-5
Cc1nc2ccccc2c(=O)n1/N=C/c1cn(-c2ccccc2)nc1-c1cccs1,10,-1,-5,i,-20,-90,-4,2
CCn1nc(C)c(NC(=O)/C=C/c2cnn(C)c2)c1C,7,3,6,i,-14,-22,7,-1
COc1ccc(CCN2CC(C#N)=C3c4cc(OC)c(OC)cc4CCN3C2)cc1OC,1,-6,-11,i,0,20,-2,6
O=C1/C(=C/c2ccccn2)SC(=S)N1c1cccc(O)c1,15,0,-7,i,x,-10,-1,0
COc1ccc(NC(=S)NNC(=O)c2ccc(S(=O)(=O)N3CCOCC3)cc2)cc1,-20,4,-2,i,-14,-3,-15,4
CCCOC(=O)C1[C@H]2C(=O)N(CCCOC)C[C@]23C=C[C@H]1O3 (stereo partly specified),1,1,3,i,-2,x,5,-15
Cc1nc(N2CCOCC2)c2c(C)c(C(=O)Nc3ccccc3Cl)sc2n1,-5,-2,0,i,-17,-7,-17,-5
COc1ccc(CC(=O)Nc2cc3oc4ccccc4c3cc2OC)cc1,52,-1,-4,i,-9,-32,-5,1
O=C(CSc1nnc(Cc2cc(=O)[nH]c(=O)[nH]2)n1-c1ccc(F)cc1)N1CCCCC1,-2,-6,-1,i,16,11,7,2
Cc1ccc(C(=O)N2CC(=O)Nc3ccc(F)cc3C2c2ccccc2)cc1[N+](=O)[O-] (stereo unspecified),-6,-8,-9,i,x,-8,-14,-5

# Three entries out of the list, arranged by heavy-atom count, smallest number first:
SMILES,CSC inhib,MT1-MMP act inh,MT1-MMP act inh RFP,Rce1 inh,UUG fidelity,Env fusion inh,PABP polyA inh,eIF4H inh
O=C1/C(=C/c2ccccn2)SC(=S)N1c1cccc(O)c1,15,0,-7,i,x,-10,-1,0
COc1cc(C(=O)NC(C)CCn2cccn2)ccc1OC1CCN(C(C)=O)CC1 (stereo unspecified),-11,-3,3,i,-12,-11,-2,1
C=C(C)CN(CC)c1nc(N)c2c(N)nc3c(c2c1C#N)CC(=O)N3C12CC3CC(CC(C3)C1)C2,19,-24,-10,x,-16,80*,62*,76*
